Screening data (PubChem)
HNF4A DNA FP = change in binding of human HNF4 alpha to DNA | activity change, % at 10 µM | 360,000 compounds, 0.3% hits | AID 1224865 | HNF4a-FITC DNA binding, fluorescence polarization, 1 h; in the data active = activity change above about 30%, passing the limit was not always enough;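 also: controls were the assay level and a saturating level of protein; the project sought stronger binding though the title names inhibitors; some compounds called inactive have numbers as strong as hits; positive values seem to mean higher polarization but the record does not say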
Vif TR-FRET = HIV-1 Vif–A3G interaction blockers – biochemical, TR-FRET, GST-Vif 1-94, biotin-A3G peptide, dose response retest, primary screen (AID 1117319); 260,000 compounds, 0.57% hits; TR-FRET GST-Vif / biotin-A3G peptide binding; higher % means a stronger effect; test concentration not given here; strong numbers were not always called active; inhibition, %; hits with a dose series show IC50 in µM;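 active = above the screen mean plus three standard deviations and confirmed in dose response; inconclusive = results disagree or hit not tested in dose response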;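 also: Vif residues 1-94 fused to GST binding biotinylated APOBEC3G peptide 110-148; 0% = full assay without inhibitor and 100% = GST in place of GST-Vif; retest series ran down from 100 µM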
ALR inh = blocks human ALR sulfhydryl oxidase activity. inhibition, % (no concentration beside the values). P55789. purified ALR, DTT oxidation, H2O2 HRP-luminol luminescence. 290,000 compounds, 3.8% hits;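 active = mean and each replicate at 75% or more; inconclusive = only one of the two met; inactive = neither met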;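 also: stock transfer was 7.5 nL into about 7.5 µL; 0% = neutral wells and 100% = wells with inactivated enzyme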
Target sequence (P55789 whole entry, looked up): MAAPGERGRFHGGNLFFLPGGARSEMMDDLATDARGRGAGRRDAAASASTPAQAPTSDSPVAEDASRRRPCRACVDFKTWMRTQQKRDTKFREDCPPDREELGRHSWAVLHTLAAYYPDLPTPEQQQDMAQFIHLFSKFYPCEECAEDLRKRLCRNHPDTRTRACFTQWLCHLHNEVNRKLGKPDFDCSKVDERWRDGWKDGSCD
FGF22 binding = FGF22 (human) thermal shift binding. Q9HCT0. recombinant FGF22 thermal shift, SYPRO orange fluorescence; percent of sucrose octasulfate shift, DMSO zero. calls only at 9.99 µM. 340,000 compounds, 1.5% hits;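 active = melting point raised past a set limit in the mean and every replicate; inconclusive = no clear call; three in four hits are not shown here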
Target sequence (Q9HCT0 whole entry, looked up): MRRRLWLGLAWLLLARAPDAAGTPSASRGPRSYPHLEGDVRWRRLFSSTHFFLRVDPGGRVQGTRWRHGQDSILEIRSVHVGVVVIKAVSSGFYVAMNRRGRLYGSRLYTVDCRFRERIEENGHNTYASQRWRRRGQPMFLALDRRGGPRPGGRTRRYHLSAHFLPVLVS
E coli growth = inhibitors of Escherichia coli growth; OD600, 23 h; hits give low values; OD600 absorbance (concentration not given with the values); 330,000 compounds, 0.21% hits; AID 1053175;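 active = OD600 absorbance below the run mean of sample wells minus 3.6 SD, in any replicate, cut at about 0.56 in these data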;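 also: stock transfer was 300 nL into about 60 µL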
AF4-AF9 inh = MLL-AF4/AF9 protein interaction inhibition; P42568; AlphaScreen, biotin-AF4 peptide binding to FLAG-AF9; inhibition, % at 10 µM; 350,000 compounds, 0.47% hits; AID 651704;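 active = every replicate reaching a set inhibition limit, whatever the replicate mean, cut at about 25% in these data; inconclusive = mean inhibition reaches that limit but some replicates miss it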;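 also: 0% = plate neutral control median and 100% = total signal loss; the record names both 10 and 1 µM as test concentration; the first replicate is given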
Target sequence (P42568 whole entry, looked up): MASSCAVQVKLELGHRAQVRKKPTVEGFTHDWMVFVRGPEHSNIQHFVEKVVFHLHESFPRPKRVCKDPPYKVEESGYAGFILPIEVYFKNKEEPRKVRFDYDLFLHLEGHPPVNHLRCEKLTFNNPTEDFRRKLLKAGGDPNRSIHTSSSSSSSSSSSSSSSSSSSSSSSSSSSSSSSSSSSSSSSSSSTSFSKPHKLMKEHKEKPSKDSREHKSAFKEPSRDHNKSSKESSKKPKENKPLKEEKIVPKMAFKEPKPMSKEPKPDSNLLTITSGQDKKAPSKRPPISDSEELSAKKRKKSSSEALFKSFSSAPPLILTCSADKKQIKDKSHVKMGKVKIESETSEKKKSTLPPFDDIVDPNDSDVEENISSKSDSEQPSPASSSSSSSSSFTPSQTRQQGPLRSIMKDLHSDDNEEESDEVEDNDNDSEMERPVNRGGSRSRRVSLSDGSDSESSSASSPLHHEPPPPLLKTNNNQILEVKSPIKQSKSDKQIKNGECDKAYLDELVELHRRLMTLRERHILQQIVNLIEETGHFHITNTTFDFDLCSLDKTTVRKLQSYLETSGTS
rRNA inh HTS = inhibits bacterial ribosomal RNA function over humanized ribosomes. E. coli WT GFP vs humanized-ribosome RFP mutants, fluorescence, 24 h; hits give low values; DMSO median 0, no signal -100. GFP signal change (wild-type ribosome), % (concentration not given with the values). 350,000 compounds, 1.6% hits. AID 720706;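 active = significant combined selectivity score with lowered wild-type GFP, culture density cut under 30%, mutant RFP and density less affected; inactive = any of these conditions unmet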; also: one replicate is shown; some compounds called inactive have numbers as strong as hits
rRNA inh HTS OD600 = also measured in rRNA inh HTS; calls as there; OD600 change, %; measured here: OD600 growth;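 optical density of the mix in the first replicate; 0 = DMSO median and -100 = no signal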
rRNA inh HTS RFP = second read-out of rRNA inh HTS, no call of its own (marks repeat the call); RFP signal change, %; measured here: RFP humanized mutant strains;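 first replicate; 0 = DMSO median and -100 = no signal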
The depositor's hits bear a star; i = inactive; ? = inconclusive; / = not tested or not shown.

Sequence of screens – HNF4A DNA FP	Vif TR-FRET	ALR inh	FGF22 binding	E coli growth	AF4-AF9 inh	rRNA inh HTS	rRNA inh HTS OD600	rRNA inh HTS RFP
CCC(=O)Nc1nnc(SCCOC)s1
    0.0	-5.3%	6.0	/	0.684	/	/	/	/
COc1ccc(C(=O)NCc2nnc(SCC(=O)Nc3nc4ccccc4s3)o2)cc1OC
    0.7	0.3%	-2.0	/	/	/	/	/	/
C[C@@H]1CCCCO[C@@H](CN(C)C(=O)Nc2ccccc2)[C@H](C)CN([C@H](C)CO)C(=O)c2cc(NS(=O)(=O)c3cn(C)cn3)ccc2O1
    /	/	/	i	/	1.0	0.6	3.3	-1.2
CCOc1cc(C(=O)Nc2ccon2)cc(OCC)c1OCC
    0.7	0.9%	0.1	/	0.677	/	/	/	/
CS(=O)(=O)N(CC(=O)N1CCCC1)c1cccc(C(F)(F)F)c1
    -0.2	-8.7%	/	i	/	-1.9	10.1	10.6	1.1
CN1/C(=C\C(=O)C(F)F)C(C)(C)c2ccccc21
    1.2	4.2%	-5.0	/	/	/	/	/	/
O=S1(=O)CCO[C@H]2Cc3ccccc3[C@H]2N1Cc1ccccc1
    0.9	/	0.0	i	/	-3.9	-23.2	-22.2	-10.6
C[C@H]1CN([C@@H](C)CO)C(=O)c2cc(NS(=O)(=O)c3ccccc3)ccc2O[C@@H]1CN(C)C(=O)Nc1ccc2c(c1)OCO2
    /	/	/	i	/	-3.1	4.2	7.7	0.9
NC(=O)c1ccc(NC(=O)COC(=O)CC2Sc3ccccc3NC2=O)cc1 (stereo not drawn)
    1.7	?	4.9	i	0.691	2.9	-10.4	-2.8	0.0
O=C(Cn1cccc1C(=O)c1ccccc1)NCCN1CCCCCC1
    0.6	-2.1%	-37.3	/	0.707	/	/	/	/
COC(=O)c1ccc(NC(=O)C23CCC(C)(C(=O)O2)C3(C)C)cc1 (stereo not drawn)
    18.2	1.3%	-10.9	/	0.675	-3.3	/	/	/
CC(=O)c1cccc(S(=O)(=O)NCCC(=O)Nc2ccc(S(N)(=O)=O)cc2)c1
    -4.3	/	-0.5	i	0.71	-6.4	7.6	5.0	-0.9
COc1ccc(CCNC(=O)c2c(O)c3c([nH]c2=O)CCCC3)cc1
    -2.0	2.7%	-17.1	/	0.735	-7.5	/	/	/
Cc1cccc(NC(=O)c2ccccc2[N+](=O)[O-])n1
    -4.4	?	-10.8	/	0.694	/	/	/	/
O=C(c1ccc(OC2CCN(Cc3ccccn3)CC2)cc1)N1CCCC(O)C1 (stereo not drawn)
    -3.1	25.2%	-24.6	i	0.727	-2.4	0.8	1.0	-0.9
COc1ccc(-c2ccc(F)cc2)cc1[C@H]1[C@H]2C=CC[C@@H](C)[C@@H]2C(=O)N1Cc1ccccc1
    0.6	1.9%	/	i	/	/	23.4	12.9	1.2
C[C@H]1CN([C@@H](C)CO)C(=O)c2cccc(NC(=O)c3ccc(-c4nccs4)cc3)c2O[C@H]1CN(C)CC1CCCCC1
    /	/	/	i	/	0.3	0.4	-4.1	0.2
O=C(c1sc2cc(F)ccc2c1Cl)N1CCN(c2ccccc2)CC1
    5.4	9.6%	1.8	i	0.713	-0.8	-20.8	-26.7	-11.3
O=C(NCCN1CCOCC1)C(=O)NCC1OCCN1S(=O)(=O)c1ccc(Br)cc1 (stereo not drawn)
    -0.1	/	-14.3	i	0.686	-1.0	1.7	6.6	0.7
CN(Cc1ccco1)S(=O)(=O)c1csc(C(N)=O)c1
    1.6	/	-3.0	i	0.728	-1.2	19.2	12.8	0.9
Cc1cccc(NC(=S)NNc2cccc(Cl)c2)c1
    -2.7	/	20.4	i	0.673	9.6	-2.1	-1.0	0.2
CCCCCOC(=O)C1=C(C)Nc2nnnn2C1c1ccccc1Cl (stereo not drawn)
    -0.5	80.9%	-7.4	/	0.705	/	/	/	/
CCCCn1c(=O)[nH]c(=O)c2c1nc(-c1cc(Cl)c(OC)c(OC)c1)n2C
    -5.4	-6.0%	-5.5	i	0.682	-8.0	2.4	1.7	-0.7
CCCn1nnnc1SCC(=O)Nc1nnc(CC)s1
    1.7	-2.6%	-0.3	/	0.706	/	/	/	/
Cc1ccc(S(=O)(=O)N(C)C[C@@H]2Oc3ncc(C#CC4(O)CCCC4)cc3C(=O)N([C@H](C)CO)C[C@H]2C)cc1
    /	/	/	i	/	0.2	0.4	-4.8	-1.2
CC(=O)OC(C=C(C)C)C/C(C)=C/COc1c2ccoc2cc2oc(=O)ccc12 (stereo not drawn)
    0.9	1.5%	/	i	/	-1.3	-21.4*	-5.6*	1.9*
COc1cc(/C=C\C(=O)Nc2cc(=O)n(C)c(=O)n2C)cc(OC)c1OC
    -2.5	/	-1.3	i	0.706	0.8	4.7	-2.8	1.3
C=CCc1c(O)nc(SCC(=O)c2ccccc2)[nH]c1=O
    -5.2	5.0%	99.2*	/	0.683	/	/	/	/
COc1ccc(C(=O)CN(CCC(=O)O)S(=O)(=O)c2ccc([N+](=O)[O-])cc2)cc1
    0.8	/	/	i	0.799	-1.7	1.4	-6.6	-5.5
CO[C@@H]1CN(C)C(=O)c2ccc(NC(=O)C3CC3)cc2OC[C@H](C)N(C(=O)NC(C)C)C[C@@H]1C
    /	/	/	i	/	0.7	-0.1	-1.4	-0.7
CCCC#Cc1ccc2c(c1)O[C@H](CN(C)C(=O)CC1CC1)[C@@H](C)CN([C@H](C)CO)S2(=O)=O
    /	/	/	i	/	2.1	2.4	-19.9	4.6
CCCCn1c2nc3ccccc3nc2c2c(=O)n(CCC(C)C)cnc21
    1.9	2.8%	-14.7	/	0.727	/	/	/	/
N#Cc1ccc(CN2CCN(C(=O)CCNS(=O)(=O)c3ccc(F)c(Cl)c3)CC2)cc1
    0.5	-7.6%	-2.5	i	0.636	-0.7	-20.2	-16.9	-1.5
O=C(c1ccccc1)C(Sc1ncn[nH]1)c1ccccc1 (stereo not drawn)
    1.1	14.2%	2.4	/	0.689	/	/	/	/
CC(C)=CCC(C)(C)/C=N/NC(N)=O
    -2.7	-4.1%	-3.9	i	/	2.3	8.3	4.4	-0.6
CC(=O)Nc1c2c(nn1-c1ccccc1)CS(=O)C2 (stereo not drawn)
    -1.5	/	-1.8	i	0.698	-1.0	3.9	5.7	-0.9
COc1ccc(CNC(=O)c2cccnc2)cc1
    -0.2	/	-4.3	i	0.636	-2.9	21.8	15.5	0.1
COc1ccc(CN(C)C[C@H]2Oc3ccc(NS(=O)(=O)c4ccc(Cl)cc4)cc3C(=O)N([C@H](C)CO)C[C@@H]2C)cc1
    /	/	/	i	/	-7.2	0.6	7.0	0.4
Cc1cc(C)nc(N2CCC(C(=O)NCc3cccs3)CC2)n1
    -0.9	-1.4%	-2.1	/	0.667	/	/	/	/
COC(=O)c1[nH]c2ccc(C)cc2c1NC(=O)Nc1ccc(OC)cc1
    1.4	?	-2.6	/	0.774	/	/	/	/
CCOC(=O)N1CCN(S(=O)(=O)c2ccc(C(=O)Nc3sc4c(c3C#N)CC(C)(C)NC4(C)C)cc2)CC1
    -2.3	/	-1.0	i	0.693	-1.0	-2.3	3.2	1.9
CCOc1ccc(-c2nnc(NC(=O)c3ccc(OCC(C)C)c(OC)c3)o2)cc1
    -1.2	1.1%	7.2	/	0.611	/	/	/	/
Cc1ccc(S(=O)(=O)N2C[C@@H](O)COC[C@H]3O[C@H](CC(=O)N[C@@H]4CCN(Cc5ccccc5)C4)CC[C@@H]32)cc1
    /	/	/	i	/	2.0	1.6	3.8	-3.3
CCOC(=O)c1ccc(NC(=O)N2CCN(Cc3cccc(F)c3)CC2)cc1
    1.2	0.1%	-5.3	i	0.724	1.1	-4.3	-3.9	0.4
COc1ccc(C(C)=O)cc1COC(=O)c1ccc2c(c1)OCO2
    0.8	13.2%	-4.2	/	0.72	/	/	/	/
C#CCOc1nc(C)cc(C)c1S(=O)(=O)c1ccccc1C
    5.4	26.9%	0.1	i	0.636	0.2	-8.8	-12.1	-1.2
COc1ccc(-c2cccc(C(=O)Nc3ccccc3C)c2)cc1
    2.2	/	44.1	i	0.719	-4.8	17.2	6.0	-5.2
Cc1cc(C)c2oc(-c3cccc(NC(=O)c4ccc(F)cc4)c3)nc2c1
    1.2	-1.3%	2.3	/	0.792	/	/	/	/
CCCNC(=O)N(C)C[C@@H]1Oc2ncc(-c3ccccc3F)cc2C(=O)N([C@H](C)CO)C[C@@H]1C
    /	/	/	i	/	-1.9	-0.6	-0.5	-2.6
Cc1cc(C)n(C(=O)CNC(=O)C2COc3ccccc3O2)n1 (stereo not drawn)
    -1.2	?	-14.7	/	0.708	/	/	/	/
Cc1sc(NC(=O)CSc2nnc(-c3ccccc3)o2)c(C#N)c1C
    8.6	9.2%	/	/	0.722	/	/	/	/
CCCC(=O)N1CCN(c2ccc(NC(=O)c3ccc(N4CCCC4)c([N+](=O)[O-])c3)cc2Cl)CC1
    0.2	/	-2.2	i	0.663	-7.3	-3.7	0.1	-0.5
CN1C(=O)c2ccc(C(=O)NC3CCCCC3)cc2C1=O
    -0.1	-1.4%	-8.7	/	0.74	/	/	/	/
CCN1CCN(C(=O)CSCc2nc(-c3ccc(OC)c(OC)c3)oc2C)CC1
    2.6	7.8%	98.5*	i	0.691	1.8	12.5	10.2	-1.3
O=C(NC1CCCCC1)N[C@@H]1C=C[C@H](CC(=O)N2CCOCC2)O[C@@H]1CO
    /	/	/	i	/	-1.0	3.0	3.1	-2.0
C[C@@H]1CN([C@@H](C)CO)S(=O)(=O)c2ccc(C#C[C@@H](C)O)cc2O[C@H]1CN(C)CC1CCOCC1
    /	/	/	i	/	-0.4	-5.0	-6.6	-2.3
O=C(Nc1ccc(Cc2ccc(NC(=O)C3CC3)cc2)cc1)C1CC1
    -3.7	-2.5%	-14.7	i	0.685	6.2	12.7	6.9	3.1
Cc1cc(C)c(S(=O)(=O)Nc2ccncc2)cc1C
    -1.3	/	-10.0	i	0.684	-3.6	6.2	11.9	1.5
NCc1csc(Nc2ncccn2)n1
    2.0	/	/	i	/	-0.3	15.0	21.9	1.3
Cn1c(CCc2ccccc2)n[nH]c1=S
    1.3	-5.7%	/	i	0.689	-2.7	4.9	-5.4	-5.2

Further structures follow:
Sequence of screens – HNF4A DNA FP	Vif TR-FRET	ALR inh	FGF22 binding	E coli growth	AF4-AF9 inh	rRNA inh HTS	rRNA inh HTS OD600	rRNA inh HTS RFP
C[C@@H]1CCCCO[C@@H](CN(C)C(=O)C2CCCCC2)[C@H](C)CN([C@@H](C)CO)C(=O)c2cc(NC(=O)Nc3ccc(F)cc3)ccc2O1
    /	/	/	i	/	5.3	-0.6	1.2	-0.9
CS(=O)(=O)N(Cc1cccc(CN(C(C(=O)O)c2ccccc2)S(C)(=O)=O)c1)C(C(=O)O)c1ccccc1 (stereo not drawn)
    -0.3	/	-12.1	i	0.706	/	18.6	15.9	-0.6
Clc1cc(Cl)c(Cl)c(Cl)c1Cl
    1.8	/	-4.6	i	0.677	/	5.7	1.2	0.7
CN1CCN(C(=S)C(=O)Nc2ccccc2)CC1
    0.6	-13.4%	-2.0	i	0.695	-1.0	8.2	3.3	3.4
COC(=O)/C(C#N)=C/c1c(N2CCN(c3ccccc3)CC2)nc2ccccn2c1=O
    9.1	-4.1%	15.3	i	0.638	22.2	-5.8	-7.1	4.4

The list is partial, so the mix of outcomes need not match the whole.
